Assay outcomes: PubChem, ICCB-Longwood Screening Facility, Harvard Medical School
VACV E9 pol inh – vaccinia E9 polymerase processive synthesis inhibition; actives 0.94% (n = 46,000); normalized absorbance, % (concentration not given with the values); in vitro processive DNA synthesis, absorbance read-out; hits give low values; some inactives read as strong as hits; AID 493162;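 active means replicate mean up to 90% and picked by the depositor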;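 further: 100% = median of the test wells of a plate; 100 nL library stock went into each well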
Starred values were filed as active, the others as inactive. The list is partial (hit frequency here may not be typical).

SMILES | VACV E9 pol inh
CCOC(=O)CSc1nc2nccnc2c(=O)n1Cc1ccccc1 | 89.3
CCCNCC(O)COc1ccccc1C(=O)CCc1ccccc1 (stereo unspecified) | 100.3
Cn1c(=O)c2c(ncn2CCNC2=NCCC2)n(C)c1=O | 100.5
NS(=O)(=O)c1ccc2nc(NC(=O)c3cccs3)sc2c1 | 95.7
OC(CN1CCN(Cc2ccccc2)CC1)C(F)(F)F (stereo unspecified) | 98.1
CCC(C)(C)NC(=S)Nc1cccc(OC)c1 | 101.5
CSc1c(CC(=O)NCCc2ccccc2)n(C)c2ccccc12 | 99.6
S=c1nc(-c2ccccc2)[nH]c2c1Cc1ccccc1O2 | 87.5
CC(C)(C)OC(=O)N1C[C@@H]2C(NC(=O)c3nsc(Cl)c3Cl)[C@@H]2C1 (stereo partly specified) | 104.6
CN1CCN(CCCN2c3ccccc3Sc3ccc(Cl)cc32)CC1 | 98.7
Cc1ccc(Oc2ncccc2NC(=O)C(=S)NCc2ccccc2)c2c1CCC2 | 98.8
CCC(C(=O)Nc1c(C)n(C)n(-c2ccccc2)c1=O)c1ccccc1 (stereo unspecified) | 100.2
COC(=O)c1ccccc1NC(=O)CSc1nc2ccsc2c(=O)n1Cc1ccc(C)cc1 | 98.4
Brc1ccc(C2=Nn3c(Cn4nnc5ccccc54)nnc3SC2)cc1 | 98.2
Cc1ccc(CNc2ccc(C(=O)O)cc2)cc1 | 80.5

An excerpt from above in order of molar mass, lowest first.
SMILES | VACV E9 pol inh
Cc1ccc(CNc2ccc(C(=O)O)cc2)cc1 | 80.5
CSc1c(CC(=O)NCCc2ccccc2)n(C)c2ccccc12 | 99.6
CCC(C(=O)Nc1c(C)n(C)n(-c2ccccc2)c1=O)c1ccccc1 (stereo unspecified) | 100.2
CCOC(=O)CSc1nc2nccnc2c(=O)n1Cc1ccccc1 | 89.3
CN1CCN(CCCN2c3ccccc3Sc3ccc(Cl)cc32)CC1 | 98.7
Cc1ccc(Oc2ncccc2NC(=O)C(=S)NCc2ccccc2)c2c1CCC2 | 98.8

Shown field by field: part of the list above
> CSc1c(CC(=O)NCCc2ccccc2)n(C)c2ccccc12
  VACV E9 pol inh: 99.6
> S=c1nc(-c2ccccc2)[nH]c2c1Cc1ccccc1O2
  VACV E9 pol inh: 87.5
> CC(C)(C)OC(=O)N1C[C@@H]2C(NC(=O)c3nsc(Cl)c3Cl)[C@@H]2C1 (stereo partly specified)
  VACV E9 pol inh: 104.6
> CN1CCN(CCCN2c3ccccc3Sc3ccc(Cl)cc32)CC1
  VACV E9 pol inh: 98.7

Other records follow.
SMILES | VACV E9 pol inh
CCOC(=O)c1cccc(C(=O)Nc2ccc(Cl)cn2)n1 | 104.7
CC(=O)N/C(=C\c1ccccc1)C(=O)Nc1cccc(C#N)c1 | 100.0
O=C(c1coc2ccccc2c1=O)N1CCN(c2ccccc2)CC1 | 101.4
CCc1ccc2c(c1)S(=O)(=O)C(C(F)(F)F)CO2 (stereo unspecified) | 87.9
c1ccc(CCc2nn3c(COc4ccccc4)nnc3s2)cc1 | 97.9
CCCc1ccc(-c2cc(N)n[nH]2)cc1 | 101.9
COc1cc2ccc(=O)oc2c(O)c1OCC=C(C)C | 97.8
COc1ccc(/C=C2\SC(=Nc3ccc(N4CCOCC4)cc3)N(C)C2=O)cc1 | 98.4
CC1Oc2ccccc2C=C1/C=C/C(=O)O (stereo unspecified) | 100.0
Cc1ccc(COc2coc(CO)cc2=O)cc1 | 105.4
Cn1cc(Br)c(N2C(=O)C=CC2=O)n1 | 102.0
CCn1c(C(=O)NC2CCC(C)CC2)cc2sccc21 (stereo unspecified) | 104.5
S=c1[nH]n(-c2ccc(Cl)cc2)c(=S)s1 | 106.7
CCCCCCCC/C=C\CCCCCCCC(N)=O | 100.6
Cc1ccc2oc(=O)c3cc(C(=O)NC4CCCC4)sc3c2c1 | 93.5
O=C(O)CCc1nn2c(=O)c3ccccc3nc2s1 | 88.8
Cc1[nH]c2ccccc2c1N=CN(C)C | 100.3
CC(=O)NCc1nc2ccccc2n1CC(C)C | 100.1
Cc1cc(C)c2c(N)c(S(=O)Cc3ccc(Cl)cc3)sc2n1 (stereo unspecified) | 99.7
Cc1cccc(C(=O)Sc2cccccc2=O)c1 | 100.4
Cc1cn(S(=O)(=O)c2ccccc2)cn1 | 97.5
CC(C)(C)NC(=O)c1cc(NC(=O)C(F)(F)F)cc(NC(=O)C(F)(F)F)c1 | 97.4
Cc1ccc(N/C=C2\C(=O)C3(C)CCC2C3(C)C)cc1C (stereo unspecified) | 97.4
CCn1c2ccc(Cl)cc2c2cc(Cl)ccc21 | 90.3
Cc1ccc(S(=O)(=O)NC(=O)Nc2cccnc2)cc1 | 90.5
Cc1cc2cc(CNC(=O)c3ccccc3C(F)(F)F)ccc2[nH]1 | 104.8
CC1CC(C)CN(c2ncnc3c2cnn3-c2ccccc2)C1 (stereo unspecified) | 100.0
O=C(O)CC(NC(=O)c1ccccc1)c1ccccc1 (stereo unspecified) | 94.0
O=C(CSc1ccc(Cl)cc1)c1ccco1 | 93.7
CC(=O)OC1(c2ccc(C)cc2)CN2CCC1c1ccccc12 (stereo unspecified) | 94.4
CC(C)CNC(=S)N1CCCC1 | 109.8
CCCCc1ccc(N2C(=O)CS/C2=C(/C#N)S(=O)(=O)c2ccccc2)cc1 | 99.9
COc1ccccc1N1C(=O)c2ccc(-c3nc4cc(Cl)ccc4c(=O)o3)cc2C1=O | 100.7
Cc1ccccc1NC(=O)COC(=O)c1ccc(-c2ccccc2)cc1 | 100.4
O=c1ccn(-c2ccc(F)cc2)nc1-c1ccnc(=S)[nH]1 | 100.0
Cc1ccc(C)n1-c1sccc1C(=O)O | 22.0*
Cc1cccc(NC(=O)C(NC(=O)c2ccc(C34CC5CC(CC(C5)C3)C4)cc2)C(C)C)n1 (stereo unspecified) | 100.9
NNC(=O)c1csc(Cc2c(Cl)cccc2Cl)n1 | 95.7
CC(C)OC(=O)NC1(C(F)(F)F)Oc2ccccc2O1 | 99.0
CN(C)c1ccc(/C=C/C2=Nc3ccccc3SC(C)(C)C2)cc1 | 92.2
O=C(NCc1cn2ccsc2n1)c1cc(Cl)cc(Cl)c1 | 99.0
c1ccc2c(c1)nc(NC1CC1)c1nnnn12 | 99.3
O=C(O)c1c(CNCCc2ccc(Cl)cc2)c2ccccc2n1Cc1ccccc1 | 93.6
COc1nc(-c2ccccc2)nc(Cl)c1NC(=O)c1cccs1 | 95.9
COc1ccc(Nc2ccccc2Cl)cc1 | 97.5
CC(c1ccccc1)n1c(CO)nc2ccccc21 (stereo unspecified) | 100.9
Cc1c(C)c(C)c(CS(=O)(=O)CC(=O)Nc2ccc(F)c(Cl)c2)c(C)c1C | 101.3
COc1cccc(NC(=O)Nc2nncs2)c1 | 98.1
Cc1nn(-c2ccccc2)c(C)c1Sc1ccccc1 | 100.2
CN(C(=O)C1c2ccccc2C(=O)N2CCc3ccccc3C12)C1CCCCC1 (stereo unspecified) | 100.1
Cc1nc2nc(C(F)(F)F)cc(=O)n2[nH]1 | 100.6
COc1ccc(C=Nc2ccc(OCC(O)CN3C(C)CCCC3C)cc2)cc1OC (stereo unspecified) | 96.6
CC1(C)CNC(=O)C=C(c2ccccc2)C1 | 106.7
C=CCN(CC=C)C(=O)C[n+]1ccc(C(N)=O)cc1 | 100.2
CCOc1ccc(Cc2nccc3cc(OCC)c(OCC)cc23)cc1OCC | 95.7
O=C(Nc1ccc(OC(F)(F)F)cc1)N1CCN(C(c2ccccc2)c2ccccc2)CC1 | 102.6
COc1ccc(C(=O)OCC(=O)N2CC(C)CC(C)C2)cc1 (stereo unspecified) | 101.7
C1N2CN3CN1CN(C2)C3 | 93.5
CCOC(=O)c1c(NC(=O)NCc2ccccc2)sc2c1CCC2 | 102.4
COc1ccc(C(=O)Nc2cccc(-c3nc4ccccc4s3)c2)cc1 | 100.5

Pulled by compound from the entries so far (3):
SMILES | VACV E9 pol inh
COc1ccc(C(=O)OCC(=O)N2CC(C)CC(C)C2)cc1 (stereo unspecified) | 101.7
Cc1nn(-c2ccccc2)c(C)c1Sc1ccccc1 | 100.2
CCOc1ccc(Cc2nccc3cc(OCC)c(OCC)cc23)cc1OCC | 95.7

(more compounds)
SMILES | VACV E9 pol inh
OC(c1ccccc1)C(O)(c1ccccc1)c1ccccc1 (stereo unspecified) | 99.4
Cc1cc2ccccc2n1CCNC(=O)c1ccc(Br)o1 | 100.8
CCOc1cccc(NC(=O)CC#N)c1 | 106.1
CCc1ccc(NC(=O)C(CC)Sc2nc3ccsc3c(=O)n2C2CC2)cc1 (stereo unspecified) | 96.4
CC(CCc1ccccc1)NCc1c(C(=O)O)[nH]c2ccccc12 (stereo unspecified) | 101.5
N#CC(NC(=O)c1ccccc1Cl)c1ccc(Cl)cc1 (stereo unspecified) | 99.3
Nc1nc2ccccc2n1C(=O)c1ccco1 | 99.8
CCCN(CCC)S(=O)(=O)c1ccc(C(=O)O)cc1 | 95.4
COc1ccc(Cl)cc1NC(=O)c1cnn(-c2ccc(F)cc2)c1C1CCNCC1 | 80.6
COC(CN(C)C(=O)c1cc2c(s1)-c1ccccc1OC2)OC | 84.4
CC(C)(C)C1CCC2(CC1)C(C#N)C2(C#N)C(=O)c1ccccc1 (stereo unspecified) | 100.3
CC(C)N1CCN(Cc2ccc(F)cc2)CC1 | 82.0
O=C(Nc1ccccc1)Nc1ccccc1Sc1nccc(C(F)(F)F)n1 | 83.6
CC1CC/C(=C/c2ccc(Cl)cc2)C(=O)C1 (stereo unspecified) | 110.9
CCN(CC)S(=O)(=O)c1cccc(C(=O)NN)c1 | 100.2
O=C(COc1ccccc1)NCc1ccncc1 | 98.8
COc1ccc(CNc2nc(-c3cccs3)c(C#N)c(=O)n2C)cc1 | 107.6
C=CCN(C(=O)CSc1nnc(CC)n2c1cc1oc(C)cc12)c1ccccc1 | 97.4
C[C@H]([C@H](C)N1CC(=O)NC(=O)C1)N1CC(=O)NC(=O)C1 | 100.7
COC(=O)c1cc(Br)ccc1OC(=O)c1cccnc1 | 101.3
COc1ccc(Oc2coc3cc(OC(=O)N4CCOCC4)ccc3c2=O)cc1 | 102.2
CCOc1ccc(CCNC(=O)C2=C(C)C(=O)OC23CCC(C)CC3)cc1 (stereo unspecified) | 102.4
Cc1cc(=O)n2ncnc2n1CC(=O)NN | 105.4
O=C(O)/C=C/C(=O)N1CCN(c2ncnc3scc(-c4ccccc4)c23)CC1 | 80.8
CC1CCCCN1c1nc2ccccc2n2cnnc12 (stereo unspecified) | 96.4
c1nc(NCCCN2CCOCC2)c2c3c(sc2n1)CCCC3 | 88.6
CCc1ccc(-n2c(N(C)Cc3ccccc3)nc3ccccc3c2=O)cc1 | 90.1
Cc1ccc(SCc2[nH]n(-c3nc4ccccc4s3)c(=O)c2C=NCc2ccco2)cc1 | 100.0
O=C(O)P(=O)(O)O | 100.2
O=C(/C=C/c1ccccc1)Oc1ccccc1 | 101.0
Cc1ccc(-n2c(C)nnc2SCc2nc(-c3ccc(Cl)cc3)no2)cc1C | 105.5
O=C(CSc1nc2ccccc2c(=O)n1-c1ccccc1)NC1CCCCC1 | 106.2
COc1ccc(-c2csc(C)n2)cc1OC | 95.7
Cc1ccc(S(=O)(=O)NCc2cccnc2)s1 | 101.6
N#CC1=C(N)N2CCSC2=NC1(C(F)(F)F)C(F)(F)F | 94.5
O=C(CCc1cccc(Cl)c1)c1cccs1 | 100.8
COCc1cc(=O)[nH]c(Sc2c(-c3ccccc3)c3ccc(Cl)cc3[nH]c2=O)n1 | 99.4
COc1ccc(C2CC(=O)c3cnc(Nc4ccccc4OC)nc3C2)cc1 (stereo unspecified) | 105.4
CC(C)Sc1nc2c(cnn2-c2ccccc2)c(=O)[nH]1 | 99.9
O=C(CSc1ccc(-c2ccncc2)nn1)NCC1CCCO1 (stereo unspecified) | 103.6
CSc1c(CC(=O)Nc2ccccc2)n(C)c2ccccc12 | 89.6
CCC(Sc1nc2cc(OC)c(OC)cc2c2nc(C)nn12)C(=O)NCc1ccc(C)cc1 (stereo unspecified) | 102.2
CCn1c(=N)c(C#N)cc2c(=O)n3ccccc3nc21 | 94.8
Cc1cc(O)ccc1-n1c(=O)c2cc3c(=O)n(-c4ccc(O)cc4C)c(=O)c3cc2c1=O | 100.5
CSc1nnc(NC(=O)c2ccc(Cl)cc2Cl)s1 | 100.6
CCOC(=O)c1cc2ccccc2nc1C | 99.8
O=C(NCc1ccccc1)NCc1noc2ccccc12 | 89.7
O=S(=O)(c1ccc(-c2cc(C(F)(F)F)ccn2)s1)N1CCCC1 | 100.9
COc1ccc(NC(=O)NCC(C)CSc2ccc(Cl)cc2)c(OC)c1 (stereo unspecified) | 103.5
O=C(NCCCN1CCCC1)c1cnn(-c2ccccc2)c1-n1cccc1 | 100.9
CC(C)(C)S(=O)(=O)/C(C#N)=C/c1sccc1C1OCCO1 | 89.5
O=S(=O)(Nc1cc(F)ccc1F)c1ccc(-n2cccn2)cc1 | 103.2
C/C(=N\O)c1c(O)c2ccccc2n(C)c1=O | 97.2
O=C(c1cccc(S(=O)(=O)NC2CCCCCC2)c1)N1CCCc2ccccc21 | 100.0
O=C(O)CCC/C=C\CC1C2CCC(O2)C1CNNC(=O)Nc1ccccc1 (stereo unspecified) | 100.2
O=C(NCCCn1ccnc1)c1cc(=O)c2ccccc2o1 | 99.3
CN(C)/C=C/C=C1C(=O)CCCC1=O | 45.0*
CC(C)n1c(C(F)(F)F)nc2cc(C(=O)Nc3ccc(Cl)cc3)ccc21 | 103.1
COC(=O)N(C)c1ccc(C(O)(C(F)(F)F)C(F)(F)F)cc1 | 100.1
COc1ccc(C2SCC(=O)N2CCCN(C)C)cc1OC (stereo unspecified) | 99.2
Next part
SMILES | VACV E9 pol inh
Cn1cc(SCC(=O)Nc2nccs2)c2ccccc21 | 99.9
CC(C)n1nnc2c(=O)oc3ccccc3c21 | 100.1
CSc1nc(NC(=O)NS(=O)(=O)c2ccccc2C(F)(F)F)nc(-c2ccccn2)n1 | 98.6
CCn1c(=NC(=O)CSCC(=O)N2CCCc3ccccc32)sc2ccccc21 | 100.1
